Screens deposited in PubChem by National Center for Advancing Translational Sciences (NCATS).
VDR inhibitor: Inhibitors of the vitamin D receptor (VDR): qHTS | Potency, µM, for inactives: max response, negative = inhibition, actives largely listed as inhibitors | AID 504847, 2011 | VDR-SRC2-3 peptide fluorescence polarization, 2 h | 400,000 compounds, 0.93% hits | Vitamin D3 receptor (Homo sapiens), P11473; active means well fitted inhibition curve with a large enough effect; inconclusive means small, poorly fitted or top-dose-only effect, or another doubt; inactive means no such curve, though single readings can be large or run the other way; further: series mostly up to about 120 µM
Target sequence (P11473 whole entry, looked up): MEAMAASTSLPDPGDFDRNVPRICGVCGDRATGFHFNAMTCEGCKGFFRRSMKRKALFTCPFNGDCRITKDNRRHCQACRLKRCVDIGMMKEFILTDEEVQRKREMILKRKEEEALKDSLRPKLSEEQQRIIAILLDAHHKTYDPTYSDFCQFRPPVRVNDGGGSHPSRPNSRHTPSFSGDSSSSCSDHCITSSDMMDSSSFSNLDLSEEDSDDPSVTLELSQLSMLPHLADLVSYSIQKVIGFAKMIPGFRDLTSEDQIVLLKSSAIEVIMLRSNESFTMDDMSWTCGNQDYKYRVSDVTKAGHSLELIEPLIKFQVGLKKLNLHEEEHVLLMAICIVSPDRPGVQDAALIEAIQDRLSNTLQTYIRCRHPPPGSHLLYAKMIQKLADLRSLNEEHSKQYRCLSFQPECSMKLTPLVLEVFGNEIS
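Fluorescence polarization assay of small-molecule disruption of VDR binding to coregulator peptide SRC2-3. Compounds and controls pin-transferred, then read after 2 h incubation at ambient room temperature.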
* = called active by the depositor; ? = inconclusive. On the % scale 0 is the no-effect control and ±100 the full control effect; potency means the concentration at half of the fitted maximal effect. Some of the compounds tested; the hit share may differ from the screen's.

SMILES	VDR inhibitor
CCOc1c(Br)cc(/C=C2\N=C(C)OC2=O)cc1Br	-3%
COCc1ccc(C(=O)NC2CC(C)(C)Cc3c2cnn3-c2ccc(C)cc2)o1 (configuration not stated)	15%
NS(=O)(=O)c1ccc(NC(=O)COC(=O)/C=C/c2ccc([N+](=O)[O-])cc2)cc1	23%
CCOC(=O)c1c(N)n(-c2ccc(C)c(C)c2)c2nc3ccccc3nc12	21%
CC(C)C(=O)c1cc2c(cc1NC(=O)c1ccccc1)OCCO2	-5%
CCOC(=O)c1cc(S(=O)(=O)N2CCN(c3ccccc3OC)CC2)[nH]n1	0%
N#C/C(=C\c1ccc(OCc2ccc(Cl)cc2Cl)cc1)c1nc2ccccc2[nH]1	-13%
CNC(=S)NNC(=O)Cn1ccc(C)n1	-6%
COC(=O)c1c(C(=O)OC)c(-c2ccc(C)cc2)n2c1CS(=O)(=O)C2	-3%
Cc1ccc2c(c1)N(CC(=O)NCc1cccs1)C(=O)CO2	3%
CN1CCc2c(sc(NC(=O)c3ccc(S(=O)(=O)N4CCCC4)cc3)c2C(N)=O)C1	-9%
CCOc1cc(Br)cc(/C=N/NC(=O)c2cccnc2)c1O	0%
O=C(NCCCN1CCCC1=O)C1CCN(S(=O)(=O)N2CCOCC2)CC1	-3%
O=C(Nc1ccc(F)cc1)C1CCCN(C2=NS(=O)(=O)c3ccccc32)C1 (configuration not stated)	-5%
CCOC(=O)CCc1c(C)c(C#N)c2nc3ccccc3n2c1-n1cnc2ccccc21	10%
CC1CN(CCCOc2ccccc2-c2ccccc2)CC(C)O1 (configuration not stated)	-18%
Cc1ccc(-c2noc(CSc3nnnn3C3CCCCC3)n2)cc1	-14%
Cc1oc(-c2ccc(Cl)cc2)nc1Cn1c(=O)cc(C)c2c(C)nn(-c3ccccc3)c21	16%
Cn1c(N)c(C(=O)COC(=O)c2ccc(Cl)c(S(=O)(=O)N3CCCCC3)c2)c(=O)n(C)c1=O	-24%
Nc1nc(SCc2ccc(F)cc2)n[nH]1	-16%

A different layout for part of the listing above:
SMILES: CCOC(=O)c1c(N)n(-c2ccc(C)c(C)c2)c2nc3ccccc3nc12
  VDR inhibitor: 21%

SMILES: CC(C)C(=O)c1cc2c(cc1NC(=O)c1ccccc1)OCCO2
  VDR inhibitor: -5%

SMILES: CCOC(=O)c1cc(S(=O)(=O)N2CCN(c3ccccc3OC)CC2)[nH]n1
  VDR inhibitor: 0%

SMILES: N#C/C(=C\c1ccc(OCc2ccc(Cl)cc2Cl)cc1)c1nc2ccccc2[nH]1
  VDR inhibitor: -13%

Continued:
SMILES	VDR inhibitor
O/N=C(\c1ccccc1)c1nccc2ccccc12	1%
CCOC(=O)c1ccc(N=Cc2nc3ccccc3n2C)cc1	1%
COc1ccc(Cl)cc1-c1n[nH]c(=S)n1Cc1ccccc1	6%
O=C(CSc1ccccc1F)NC1CCS(=O)(=O)C1 (configuration not stated)	3%
CCCCCN1C(C)=CC(=C(C#N)C#N)C=C1C	-5%
CC1(C)Cc2c(C#N)c(N3CCN(C(=O)c4ccco4)CC3)nc(-c3ccco3)c2CS1	?
O=C(Nc1ccc(N2CCOCC2)cc1N1CCOCC1)c1ccc(Cl)cc1	-5%
COc1ccc(C(=O)COC(=O)/C=C/c2ccc(S(=O)(=O)Nc3cccc(S(N)(=O)=O)c3)cc2)cc1	-4%
CSc1ccc(C2C(C#N)=C(N)Oc3c2ccc(=O)c2c(C)oc(C)c32)cc1 (configuration not stated)	11%
C=CCNc1nnc(SC2CC(=O)N(c3ccc(OCCC)cc3)C2=O)s1 (configuration not stated)	-6%
O=C(CCCSc1nc2ccccc2[nH]1)NCc1ccco1	-7%
Cc1cc(C)cc(NC(=O)C2CCCC2)c1	9%
COc1ccccc1CNC(=O)C(=O)NCC(c1cccnc1)N1CCN(c2ccc(F)cc2)CC1 (configuration not stated)	4%
CCOc1ccccc1NC(=O)CSc1ncc(S(=O)(=O)c2ccc(C(C)(C)C)cc2)c(=O)[nH]1	-13%
O=C(Nc1ccccc1Cl)N1CCn2c(nc3ccccc32)C1	-20%
Cc1ccc(NC2CCCN(C(=O)c3cc4ncccn4n3)C2)cc1C (configuration not stated)	4%
COC(=O)c1cn(NC(=O)C2CCCO2)c(=O)c2ccccc12 (configuration not stated)	5%
C(=N\Nc1ccccn1)/c1cccnc1	7%
CC(/C=N/NC(=O)Cn1cnc2c1c(=O)n(C)c(=O)n2C)=C\c1ccco1	-9%
O=C(COC(=O)c1cccc(OC(F)F)c1)NC(=O)NC1CCCCC1	-1%
O=C(NCc1ccc2c(c1)OCO2)c1cc([N+](=O)[O-])ccc1N1CCCCC1	0%
COc1cccc(C2[C@H](C)C3(CCN2C)OCCO3)c1 (some centres not stated)	-4%
COc1ccc(-c2nc(C)c(CCNC(=O)C(=O)Nc3cccc(F)c3)s2)cc1OC	3%
COCCN(C(=O)CSc1nnc(-c2ccc(C(C)(C)C)cc2)n1N)c1c(N)n(CC(C)C)c(=O)[nH]c1=O	13%
c1ccc2c(c1)SCc1nnc(-c3ccncc3)n1-2	-7%
COC(=O)c1ccc(Cn2nnc3c(=O)[nH]c(C4CCN(S(=O)(=O)c5ccc(F)cc5)CC4)nc32)cc1	11%
Cc1ccc(Cl)c(OCC(=O)Nc2cc(S(=O)(=O)N3CCOCC3)ccc2N2CCCC2)c1	4%
O=C(COc1ccc(F)cc1)Nc1ccc(-n2cnnn2)cc1	-1%
CC(C)(C)c1cc(N/C=C\c2nnnn2-c2ccc(Br)cc2)no1	24%
Cc1ccc2c(c1)-c1c(cnn1CC(=O)N(Cc1ccco1)C1CCCCC1)CO2	-3%
CCn1c(C)nc2cc(C(=O)N/N=C(\C)c3ccc(OC)cc3O)ccc21	-4%
Cc1nc2sc(C(c3cccc(F)c3)N3CCC(C)CC3)c(O)n2n1 (configuration not stated)	-5%
Cc1ccc(S(=O)(=O)CCC(=O)Nc2nnc(-c3ccccc3S(C)(=O)=O)o2)cc1	-8%
Nc1cccc(C(=O)Nc2ccccc2Cl)c1	9%
CCN(CC)CCNC(=O)Cc1c(C(=O)O)n(C)c2ccccc12	-10%
Cc1ccc2c(c1)N=C(c1ccc(Cl)cc1)CO2	-13%
COc1ccc(Cc2[nH]n3c(=O)cc(C(C)C)nc3c2-c2ccccc2)cc1	-7%
Cc1ccc(S(=O)(=O)N2CCN(C(=O)CSc3ncn[nH]3)CC2)c(C)c1	-1%
O=C(O)Cc1csc(-c2ccc(F)cc2)n1	-7%
CN(CC(=O)NCc1ccncc1)S(=O)(=O)c1cc(Cl)ccc1Cl	9%

Reprinted from above, 4 compounds:
SMILES	VDR inhibitor
COCCN(C(=O)CSc1nnc(-c2ccc(C(C)(C)C)cc2)n1N)c1c(N)n(CC(C)C)c(=O)[nH]c1=O	13%
c1ccc2c(c1)SCc1nnc(-c3ccncc3)n1-2	-7%
COC(=O)c1ccc(Cn2nnc3c(=O)[nH]c(C4CCN(S(=O)(=O)c5ccc(F)cc5)CC4)nc32)cc1	11%
Cc1ccc(Cl)c(OCC(=O)Nc2cc(S(=O)(=O)N3CCOCC3)ccc2N2CCCC2)c1	4%

The listing picks up; the two compounds before the break are reprinted first.
SMILES	VDR inhibitor
O=C(O)Cc1csc(-c2ccc(F)cc2)n1	-7%
CN(CC(=O)NCc1ccncc1)S(=O)(=O)c1cc(Cl)ccc1Cl	9%
COc1ccc(S(=O)(=O)N2CCN(C(=O)c3cc(C)oc3C)CC2)cc1OC	-7%
O=C(O)c1ccc(C=NNC(=O)c2ccccc2NS(=O)(=O)c2cccs2)cc1	-3%
CCOC(=O)c1ccc(NS(=O)(=O)c2ccc3c(c2)oc(=O)n3C)cc1	-8%
O=C(NC(=C(Cl)Cl)S(=O)(=O)c1ccc(Cl)cc1)c1ccccc1	4%
CSC(C(=O)c1cc2ccccc2o1)c1ccccc1 (configuration not stated)	-9%
CC(=O)NCC(=O)N1CCCC(C(=O)c2ccc3c4c(cccc24)CC3)C1 (configuration not stated)	-26%
CCCCN(Cc1ccc(Cl)c(Cl)c1)c1ccc(Br)cn1	-4%
COc1ccc(-c2c(C)c3ccc(O)c(CN4CCC(C)CC4)c3oc2=O)cc1OC	14%
O=C(Nc1ccccc1Sc1ccccc1)c1cnn2c1NC(=C1CC1)C=C2C(F)(F)F	4%
Cc1c(NC(=O)C23CC4CC(CC(C)(C4)C2)C3)c(=O)n(-c2ccccc2)n1C	10%
Cc1cn2c(=O)c(S(=O)(=O)Nc3ccc(F)cc3F)c(C)nc2s1	12%
Cc1cc(C)cc(NC(=O)C2CCC(CNC(=O)[C@@H]3Cc4ccccc4CN3)CC2)c1 (some centres not stated)	-18%
COc1cc(NC(=O)CC(C)C)ccc1NC(=O)c1ccco1	20%
CCOC(=O)c1ccc(NC(=O)Nc2cc3c(cc2N2CCCC2)n(C)c(=O)n3C)cc1	-3%
O=C(CSc1nnc2ccc(-c3cccnc3)nn12)Nc1ccc(F)cc1	9%
Fc1ccc(OCc2cc(-c3ccccc3)no2)cc1	-7%
Cc1noc(C)c1COc1cccc(C(=O)N2CCN(C/C=C/c3ccccc3)CC2)c1	-7%
O=C(c1cccc(Br)c1)N1CCN(c2ccc(N3CCOCC3)nn2)CC1	-13%
CC(=O)N1CCN(C(=O)c2ccc(NS(=O)(=O)c3ccc4[nH]c(=O)[nH]c4c3)cc2)CC1	5%
COc1ccccc1C(=O)NCCC(=O)Nc1ccc(OC(F)(F)F)cc1	-21%
Cc1ccc(NC(=O)CCS(=O)(=O)c2cccc3nsnc23)c(C)c1	-9%
Cc1ccc(S(=O)(=O)NCCC(=O)Nc2ccc(Cl)c(Cl)c2)cc1C	-10%
O=C(COc1ccc(F)cc1Br)NCCCN1CCCC1=O	-2%
COCCNC(=O)Cn1c(=O)c2cccn2c2ccc(F)cc21	-1%
O=C(/C=C/c1ccc(Cl)cc1Cl)Nc1cccc(S(=O)(=O)NC2=NCCCCC2)c1	5%
COc1ccccc1C(C)Nc1ccc(S(=O)(=O)N2CCN(C)CC2)cc1[N+](=O)[O-] (configuration not stated)	-8%
CC(C)CC1NC(=O)N(CC(=O)Nc2ccc3c(c2)OCCO3)C1=O (configuration not stated)	-3%
O=C(NN1CCCCC1)c1ccc(COc2ccc(Cl)cc2)cc1	4%
CN(C)CCOC(=O)C12CC3(C)CC(C)(CC(C)(C3)C1)C2	-1%
Cc1cccc(C(=O)NCC(=O)OCc2nc(N)nc(Nc3ccccc3C)n2)c1	13%
COc1ccc(C(=O)Nc2nc3nc(C)c(Cc4ccccc4)c(=O)n3[nH]2)cc1OC	4%
C[C@H](CO)N1C[C@H](C)[C@@H](CN(C)C(=O)Nc2ccc(C(F)(F)F)cc2)Oc2ccc(NC(=O)NC3CCCCC3)cc2C1=O	-1%
CC1(c2ccccc2)NC(=O)N(CC(=O)Nc2ccc(N3CCOCC3)cc2)C1=O (configuration not stated)	25%
CCOC(=O)N1CCN(C(=O)CNC(=O)c2nn(-c3ccc(OC)c(Cl)c3)c(=O)c3ccccc23)CC1	-2%
COC(=O)c1c(-c2ccc(Cl)cc2)noc1N1CCN(c2ccc(C(C)=O)cc2)CC1	26%
CC(C)Sc1nc2c(c(=O)[nH]c(=O)n2C)n1Cc1ccccc1	0%
O=C(CSc1nccn1-c1ccc(Cl)cc1)NCc1ccc2c(c1)OCO2	-7%
Cc1c(NC(=O)COc2ccc(C(C)C)cc2)c(=O)n(-c2ccccc2)n1C	-1%
CN(C)S(=O)(=O)c1cccc(NC(=O)c2ccc(-n3cncn3)c([N+](=O)[O-])c2)c1	-6%
Cc1cccc(CNC(=O)c2ccc3nc(-c4ccccc4)c(-c4ccccc4)nc3c2)c1	15%
CSc1cccc(NC(N)=S)c1	-8%
N#Cc1cn(OCc2ccccc2)c(=O)[nH]c1=O	-13%
Cc1ccc(-n2nc(CO)c(C(=O)NCCCCc3ccccc3)n2)cc1	12%
Cc1c(C(=O)N2CC3(CC(c4cccc(NC(=O)CC(c5ccccc5)c5ccccc5)c4)=NO3)C[C@@H]2C(N)=O)cc([N+](=O)[O-])cc1[N+](=O)[O-] (some centres not stated)	-15%
Cc1nnc(SC(C)C(=O)Nc2sc3c(c2C#N)CCCC3)[nH]c1=O (configuration not stated)	-17%
CCNC(=O)CCSc1nc2cc(Cl)ccc2o1	-12%
Cc1noc(C)c1CN1C(=O)NC2(CCCCCCC2)C1=O	-17%
O=C(NCCN1C(=O)S/C(=C\c2ccccc2F)C1=O)C1CCN(S(=O)(=O)c2cccs2)CC1	-12%
CN(C)C(CNC(=O)c1ccc(NS(=O)(=O)c2cccc([N+](=O)[O-])c2)cc1)c1ccco1 (configuration not stated)	-1%
O=C(CN1CCN(Cc2cccc(F)c2)CC1)NCc1ccccc1	-10%
O=c1[nH]nc(N=Nc2c(O)[nH]c3ccc(F)cc23)c(=O)[nH]1	-19%
O=C(Cn1cc(C(=O)c2cccs2)c2ccccc21)NCC1CCCO1 (configuration not stated)	-18%
CCOC(=O)c1c2c(n(-c3ccc(OC)cc3)c1C)C(=O)C(=O)c1ccccc1-2	18µM*
CCOC(=O)C1CCN(C(=O)Cn2cc(C(=O)C3CC3)c3ccccc32)CC1	8%
C=CCn1c(NCc2ccccc2)nc2ccccc21	-15%
O=C(Nc1ccc(S(=O)(=O)N2CCOCC2)cc1)c1cccnc1	3%
COC(=O)CCCC1=CC2=CC(=O)C(C)(OC(=O)c3cccs3)C(=O)C2=CN1C1CC1 (configuration not stated)	10%
COc1ccc(-c2nc(N)nc(C(F)(F)F)c2-c2cscn2)c(O)c1	3%
C[C@H]1[C@H](c2ccccc2)C[C@@H](C(=O)O)C1(C)C	-2%
CC1CC(c2ccccc2)n2nc(N3C(=O)c4ccccc4C3=O)nc2N1 (configuration not stated)	0%
Cc1ccccc1-n1cc(C(=O)c2cc(Cl)ccc2O)cc(C#N)c1=O	-4%
COc1ccc(NC(=O)N2CCC3(CC2)CCN(C(=O)c2cccn2C)CC3)cc1	5%
NS(=O)(=O)c1ccc(CCNC(=O)CCc2nc3sc4c(c3c(=O)[nH]2)CCCC4)cc1	2%
